Source: PubChem BioAssay
Beta cell apopt: beta cell apoptosis inhibition. INS-1E cytokine-induced death, ATP luminescence, 48 h; percent of positive-control rescue, neutral wells zero. 0.8% of 300,000 active. protection from apoptosis, % (test concentration not listed);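 active = all replicates at 75% or more, or half of them and the mean; inconclusive = half reach 75% but not the mean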;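 note: 0% = cytokine-treated negative control wells and 100% = positive control rescue; higher means more ATP so stronger rescue from cytokine killing; wells of about 40 µL received 100 nL stock; the first replicate is given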
Bfl-1 A1 inh: inhibitors of the anti-apoptotic protein A1, read as caspase activation; MEF A1-2A-BIM cells, Caspase-Glo 3/7 luminescence, 3 h; percent of clofoctol response, vehicle zero; caspase activation, % (no concentration beside the values); 0.066% of 330,000 active; AID 2462;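 active = over half of replicate activation scores above 10%, or exactly half above 10 with the replicate mean above 10; inconclusive = replicate mean below 10 yet half the replicates above 10; inactive = over half of replicates below 10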;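 note: wells of about 30 µL received 50 nL stock; many hits fall short of the cut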
Ecoli rRNA inh: inhibits bacterial ribosomal RNA function over humanized ribosomes; E. coli WT GFP vs humanized-ribosome RFP mutants, fluorescence, 24 h; stronger effect = lower value; DMSO median 0, no signal -100; GFP signal change (wild-type ribosome), % (test concentration not listed); 1.6% of 350,000 active; AID 720706;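 active = significant combined selectivity score with lowered wild-type GFP, culture density cut under 30%, mutant RFP and density less affected; inactive = any of these conditions unmet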; note: one replicate is shown; some compounds called inactive have numbers as strong as hits
AF4-AF9 inh: inhibitors of human MLL-AF4/AF9 interaction. P42568. AlphaScreen, biotin-AF4 peptide binding to FLAG-AF9. inhibition, % at 10 µM. 0.47% of 350,000 active. AID 651704;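 active = every replicate reaching a set inhibition limit, whatever the replicate mean, cut at about 25% in these data; inconclusive = mean inhibition reaches that limit but some replicates miss it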;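 note: 0% = plate neutral control median and 100% = total signal loss; the record names both 10 and 1 µM as test concentration; the first replicate is given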
Target sequence (P42568 whole entry, looked up): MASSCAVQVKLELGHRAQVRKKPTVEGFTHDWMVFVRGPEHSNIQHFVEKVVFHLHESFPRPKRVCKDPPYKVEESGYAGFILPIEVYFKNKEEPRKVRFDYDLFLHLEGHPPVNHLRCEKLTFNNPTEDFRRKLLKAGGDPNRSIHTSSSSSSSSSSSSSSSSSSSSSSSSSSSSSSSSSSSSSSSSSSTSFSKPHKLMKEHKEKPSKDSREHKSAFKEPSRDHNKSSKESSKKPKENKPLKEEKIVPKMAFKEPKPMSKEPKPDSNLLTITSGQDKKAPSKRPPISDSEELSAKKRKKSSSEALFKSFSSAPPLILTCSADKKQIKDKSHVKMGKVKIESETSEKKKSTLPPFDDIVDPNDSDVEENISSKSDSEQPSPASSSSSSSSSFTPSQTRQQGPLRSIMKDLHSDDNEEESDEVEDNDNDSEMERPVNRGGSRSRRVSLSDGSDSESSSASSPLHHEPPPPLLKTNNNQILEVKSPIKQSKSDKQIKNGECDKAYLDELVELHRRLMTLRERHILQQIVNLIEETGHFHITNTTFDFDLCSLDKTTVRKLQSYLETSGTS
T cruzi inh: T. cruzi replication inhibition; 1.4% of 300,000 active; AID 1885; T. cruzi beta-gal in NIH3T3, luminescence, 90 h; inhibition, % (no concentration beside the values);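 active = mean inhibition across valid replicates above about 55%, limit read from the data; inconclusive = mean below that limit but half or more replicates reach it; inactive = mean below it, under half of replicates reach it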;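 note: signal also drops with host cell toxicity which is not excluded here; 0% = plate median of DMSO wells and 100% = zero luminescence signal; higher percent means less beta-gal luminescence so fewer parasites; stock transfer was 50 nL into about 50 µL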
FGF22 binding: binders of recombinant human FGF22 by thermal shift; SYPRO orange fluorescence; percent of sucrose octasulfate shift, DMSO zero; Q9HCT0; 1.5% of 340,000 active; calls only at 9.99 µM;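 active = melting point raised past a set limit in the mean and every replicate; inconclusive = no clear call; three in four hits are not shown here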
Target sequence (Q9HCT0 whole entry, looked up): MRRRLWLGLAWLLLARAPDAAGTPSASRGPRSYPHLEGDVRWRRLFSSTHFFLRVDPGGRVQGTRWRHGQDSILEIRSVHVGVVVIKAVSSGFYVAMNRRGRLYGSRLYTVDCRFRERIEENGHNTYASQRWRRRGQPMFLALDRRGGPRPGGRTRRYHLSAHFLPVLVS
E coli growth: inhibitors of Escherichia coli growth; OD600, 23 h; stronger effect = lower value; OD600 absorbance (no concentration beside the values); 0.21% of 330,000 active;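 active = OD600 absorbance below the run mean of sample wells minus 3.6 SD, in any replicate, cut at about 0.56 in these data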;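 note: stock transfer was 300 nL into about 60 µL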
UCH37 inh: blocks the human deubiquitinase UCH37. inhibition, % (test concentration not listed). AID 588478. 0.33% of 330,000 active. Q9Y5K5. purified proteasome/UCH37, Ub-AMC cleavage fluorescence;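 active = mean of two replicates above 20%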;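 note: 0% = compound-free wells with enzyme and 100% = wells lacking proteasome; stock transfer was 100 nL into about 20 µL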
Target sequence (Q9Y5K5 whole entry, looked up): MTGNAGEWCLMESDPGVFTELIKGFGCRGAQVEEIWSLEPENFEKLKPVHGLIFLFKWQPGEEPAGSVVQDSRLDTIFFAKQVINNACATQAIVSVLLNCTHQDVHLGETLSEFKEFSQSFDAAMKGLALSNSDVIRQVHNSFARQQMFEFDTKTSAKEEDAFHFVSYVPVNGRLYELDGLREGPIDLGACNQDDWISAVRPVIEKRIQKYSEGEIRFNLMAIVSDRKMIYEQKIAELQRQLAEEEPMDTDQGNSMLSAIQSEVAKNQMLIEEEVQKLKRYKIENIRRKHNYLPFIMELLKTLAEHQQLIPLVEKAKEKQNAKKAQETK
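Schedule: 30 min plus 25 min, room temperature / Material: human UCH37 within purified proteasomes / Technique: AMC fluorescence intensity at 355/460 nm / Buffer or medium: pH 7.4 Tris-HCl (50 mM) with ovalbumin, ATP-MgCl2, DTT / Controls: wells without proteasome as full block, compound-free enzyme plus substrate as uninhibited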
Ecoli rRNA inh OD600: further read-out of Ecoli rRNA inh, marked with its call; OD600 change, %; measured here: OD600 growth;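 optical density of the mix in the first replicate; 0 = DMSO median and -100 = no signal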
Ecoli rRNA inh RFP: second read-out of Ecoli rRNA inh, no call of its own (marks repeat the call); RFP signal change, %; measured here: RFP humanized mutant strains;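 first replicate; 0 = DMSO median and -100 = no signal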
* = called active by the depositor; i = inactive; ? = inconclusive; · = not tested or not shown.

SMILES	Beta cell apopt	Bfl-1 A1 inh	Ecoli rRNA inh	Ecoli rRNA inh OD600	Ecoli rRNA inh RFP	AF4-AF9 inh	T cruzi inh	FGF22 binding	E coli growth	UCH37 inh
O=C(Cn1ccc2ccccc2c1=O)NCCC(=O)N1CCN(c2cccc(Cl)c2)CC1	-3	1.4	·	·	·	·	8	·	0.7	3.0
COc1ccc(Cn2ccnc2SCC(=O)Nc2ccccc2F)cc1	-5	-0.1	-4	-7	-2.0	1.3	-7	i	0.73	1.9
Cc1cc(C)c2nc(NCc3ccccc3O)sc2c1	-5	1.0	4	5	1.5	-1.4	-2	i	0.69	4.9
CC(C)(C)OC(=O)N1CCC[C@H]1c1nnc(SCc2ccccc2)o1	3	-1.7	-22	-23	-3.8	-3.1	11	i	0.7	1.0
O=C(CSc1nnc2ccccn12)NCc1ccco1	0	-0.8	18	12	4.3	-1.9	-7	i	0.69	1.5
COc1ccc(NC(=O)C2CCCN2C(=O)NC2CCCCC2)cc1 (centres undefined)	-4	0.6	1	10	-1.5	-0.1	-17	i	0.67	2.1
Cc1ccc(Cl)cc1N1CCN(Cc2nnnn2C2CCCCC2)CC1	9	0.4	·	·	·	·	42	·	0.79	2.1
O=c1[nH]cnc2nn(-c3ccccc3)nc12	-1	-6.3	·	·	·	·	9	·	0.7	-39
Cc1cc(N2CCN(c3ncccn3)CC2)nc2c(C)cccc12	9	0.7	5	10	0.4	41*	5	i	0.71	-32
C=CCSc1nnc(NC(=O)c2ccc(N3CCCC3=O)cc2)s1	-7	-1.7	7	9	-3.1	-1.3	·	i	0.66	-7.6
C=CCc1ccc(OCC(O)CN2CCc3ccccc3C2)c(OC)c1 (centres undefined)	-9	0.2	-2	-13	0.6	8.6	4	i	0.65	2.0
O=C(C1CCCCC1)N(Cc1nc2sc3c(c2c(=O)[nH]1)CCCC3)Cc1cccs1	3	-0.3	·	·	·	·	5	·	0.72	3.3
COC(=O)CNC(=O)C(NC(=O)c1ccc(Cl)cc1)C(C)C (centres undefined)	-5	-0.8	·	·	·	·	-11	·	0.69	3.4
CC(C)(C)OC(=O)N1CCC(c2c(C(=O)NC3CC3)cnn2-c2ccccc2)CC1	-2	-0.5	1	-7	0.4	2.0	-21	·	0.68	2.4
CCn1c(-c2cc3ccccc3cc2O)n[nH]c1=S	-4	0.2	-14	-4	3.3	·	-15	·	0.65	-49
NNc1nc2sc3c(c2c(=O)n1C1CCCCC1)CCN(Cc1ccccc1)C3	-7	-0.7	2	-1	0.8	·	17	i	0.64	2.7
COc1ccc(N2CCN(Cc3cc(=O)c(OCC(=O)NC4CCCC4)co3)CC2)cc1	·	0.4	0	7	-2.0	-1.1	8	i	0.69	1.1
COc1ccc(C(CNC(=O)c2cccc(S(=O)(=O)Nc3ccc(F)cc3)c2)N2CCCCC2)cc1 (centres undefined)	·	·	-61	-83	-17	4.9	·	i	0.71	1.3
CC(=O)Nc1ccc(NC(=O)C2CCCN2/C=C/C(=O)C(F)(F)F)cc1 (centres undefined)	-3	-0.1	13	13	4.1	-1.5	-1	·	0.68	8.6
CCCC[C@H]1COCCS(=O)(=O)N1Cc1cccc([N+](=O)[O-])c1	0	0.5	-11	-17	7.0	0.4	-6	i	·	3.7
CC(C)(CNS(=O)(=O)c1ccc2ccccc2c1)N1CCOCC1	-4	0.9	10	11	1.8	-2.1	·	i	0.69	4.9
CCOC(=O)CCS(=O)(=O)c1ccc(-c2ccc(S(=O)(=O)CCC(=O)OCC)cc2)cc1	-8	-0.4	2	0	-4.4	6.5	-15	i	0.7	1.4
CCCn1c(C(O)c2ccc(OCC)cc2)nc2ccccc21 (centres undefined)	-5	-0.5	-13	-54	8.1	-10	1	i	0.7	8.4
O=C(N/N=C/c1ccccn1)c1cccc(NC(=O)c2ccccc2Cl)c1	·	2.2	-14	-14	11	1.7	2	i	·	·
O=C(O)C1CCN(C(=O)COc2ccc3c4c(c(=O)oc3c2)CCCC4)CC1	-1	0.4	-8	5	0.6	-1.9	-10	i	0.77	-80
CCn1nc(NC(C)=O)c2cc3ccc(C)cc3nc21	1	0.1	3	8	0.4	-5.8	-6	i	0.63	-36
CCN(CC)S(=O)(=O)c1cc(C(=O)NC2CCCCC2)ccc1C	3	-0.9	·	·	·	·	13	·	0.72	1.6
CC1CN(CC(O)COc2ccc(C(=O)c3ccccc3)cc2)CC(C)O1 (centres undefined)	-1	-0.2	·	·	·	·	2	·	0.68	4.3
CCN(CC)S(=O)(=O)c1ccc(N2CCCCC2)c(NC(=O)/C=C/c2ccc(OC)c(OC)c2)c1	8	-0.3	·	·	·	·	14	·	0.74	-9.3
CCCCCN(C(=O)NC(=O)Nc1ccccc1OC)S(C)(=O)=O	0	0.6	·	·	·	·	-7	·	0.69	2.8
COCCNC(=S)N/N=C/c1ccc(-c2ccc([N+](=O)[O-])cc2)o1	11	0.5	8	-5	-6.1	-7.9	-1	i	·	·
Clc1ccc2c(c1)-c1nnc(Br)n1-c1ccccc1S2	-11	0.9	·	·	·	·	22	·	0.71	1.8
Cc1ccc(NC(=O)c2c3c(nc4ccccc24)CCC3)cc1	-4	0.7	11	17	10	-7.5	8	·	0.69	3.0
Cc1ccc(/C=C/C(=O)NC(=S)N2CCN(c3ccc(F)cc3)CC2)cc1	-6	-0.5	0	1	3.5	-3.1	-2	i	0.65	2.1
CCSC1=NCCN1C(=O)C(C)(C)Oc1ccc(Cl)cc1	?	1.3	-5	3	0.6	-1.5	-6	·	0.65	2.0
COc1ccccc1CC(=O)NCCCc1ccccc1	-1	-1.7	-23*	-13*	-2.0*	-3.7	-1	i	0.66	3.4
Cc1ccccc1OCC(=O)OCC(=O)NCCNC(=O)COC(=O)COc1ccccc1C	2	0.9	15	13	1.8	-3.5	-3	i	0.67	3.1
Cc1ccc(/C=N/NC(=O)c2ccc(OC3CCCC3)cc2)o1	·	·	6	11	0.3	1.9	-10	i	·	·
CCNC(=S)Nc1cc(-c2ccc(Cl)cc2)[nH]n1	3	0.1	-16	-13	-3.7	-0.2	1	i	0.63	0.8
Cc1ccn2c(CNCC3OCCc4ccccc43)c(C(=O)N3CCCCCC3)nc2c1 (centres undefined)	16	0.9	·	·	·	·	36	·	0.69	-0.1
Cc1ccc(CNC(=O)[C@@H](NC(=O)Cc2ccccc2)C(C)C)cc1	1	0.3	7	12	-0.5	-0.8	13	i	0.7	6.3
NC(=O)C1C(c2ccccc2)=C1c1ccccc1	2	-0.4	·	·	·	·	-21	·	0.74	2.9
FC(F)(F)c1ccnc(NCc2ccco2)n1	-6	-0.5	-10	-25	-0.6	-6.5	-8	i	0.65	1.0
CCOC(=O)C1CCCN(C(=O)COc2ccccc2F)C1 (centres undefined)	-1	0.6	·	·	·	1.5	-9	i	0.68	0.8
O=C(CCNC(=O)c1ccc(Br)cc1)Nc1nccs1	-1	-0.7	8	5	0.6	-4.7	3	i	0.72	3.6
COc1cc(C(=O)NC2=C(C#N)CCC2)cc(OC)c1OC	-8	-1.2	18	13	3.6	-1.3	6	i	0.73	1.2
CCC(=O)c1cccc2c1N=CC1=C(CC(C)(C)CC1=O)N2	-23	-0.4	12	12	3.8	·	20	·	0.69	1.7
COc1ccc(C(=O)N2CCCN(C)CC2)c(OC)c1	·	-0.1	12	6	0.9	-5.6	5	i	0.69	3.9
CCN(CC(=O)Nc1ccc(OC)cc1)CC(=O)Nc1ccc2c(c1)OCO2	3	-0.7	0	2	-1.9	-3.8	·	i	0.67	-0.1
NC(=O)c1ccc(NC(=O)C#Cc2ccccc2)cc1	-4	-0.2	7	14	1.1	-2.2	9	i	0.63	1.6
Following part
SMILES	Beta cell apopt	Bfl-1 A1 inh	Ecoli rRNA inh	Ecoli rRNA inh OD600	Ecoli rRNA inh RFP	AF4-AF9 inh	T cruzi inh	FGF22 binding	E coli growth	UCH37 inh
COc1ccc2c(c1)CC/C(=C\c1ccc(OC)c(Cn3cccn3)c1)C2=O	-1	0.3	·	·	·	·	39	·	0.73	1.8
O=C(NCc1ccncc1)C1COc2ccccc2O1 (centres undefined)	-1	1.1	·	·	·	·	-4	·	0.68	0.7
COc1ccc(CC(=O)NNC(=O)c2ccc(SCc3cc(F)ccc3F)c([N+](=O)[O-])c2)cc1	2	-0.1	9	-5	2.0	-0.6	11	i	0.7	7.4
Cc1nn(C)c(NC(=O)c2ccc(Cl)cc2)c1Cl	-5	2.6	1	2	-0.5	-6.9	-9	i	0.69	3.5
CCn1c(C(O)c2ccc3c(c2)OCO3)nc2ccccc21 (centres undefined)	-9	0.0	·	·	·	·	3	·	0.73	4.3
CCCCNS(=O)(=O)CCNCc1ccco1	·	·	6	29	0.5	-3.4	·	i	0.72	3.9
CC(=O)Nc1ccc(S(=O)(=O)NC(=O)C23CC4CC(CC(C4)C2)C3)cc1	2	0.7	·	·	·	·	3	·	0.73	-0.7
O=c1cc(-c2ccc(Br)cc2)[nH][nH]1	-1	-0.1	-27	-32	27	-1.1	13	i	0.71	3.8
O=C(Nc1ccc(Br)cc1Cl)c1ccc2c(=O)n3c(nc2c1)CCC3	3	-0.1	5	4	2.7	-12	15	i	0.68	-1.5
COc1ccc(C(=O)NC(=O)CSc2nc3nc(C)cc(C)n3n2)cc1	-4	0.2	8	15	-0.5	-0.3	·	i	0.67	1.0
O=C(O)c1cc(NN=Nc2ccc(Br)cc2)cc([N+](=O)[O-])c1	-1	0.4	1	4	1.5	-19	-11	i	·	·
CCC(=O)c1cc2c(cc1NC(=O)C(C)C)OCCO2	-4	0.5	·	·	·	·	-1	·	0.79	-12
COc1ccc(C(CNC(=O)c2cccnc2SC)N2CCOCC2)cc1 (centres undefined)	-8	-0.2	·	·	·	·	-4	·	0.73	4.9
CCOc1ccc(NC2=NC(C)(C)N=C(N)N2)cc1	-3	0.1	·	·	·	·	-5	·	0.72	-1.8
Clc1ccc(-c2cn3cc(Cl)ccc3n2)cc1	7	-9.5	2	10	-1.0	-2.7	8	i	0.62	-9.5
Cc1nc2ncccn2c1-c1csc(Nc2cccc(C(=O)O)c2)n1	0	-0.2	7	7	-0.1	-1.6	-13	i	0.68	1.3
CCC(C(=O)NCCCN1CCOCC1)n1c2ccccc2c2nc(=O)cc(C)n21 (centres undefined)	-3	0.8	4	7	3.7	-8.4	-3	i	0.67	-2.1
CCS(=O)(=O)N1Cc2ccccc2CC1C(=O)OCC(=O)Nc1ccc(C)cc1 (centres undefined)	·	1.1	·	·	·	·	-3	·	0.7	3.6
CCOC(=O)N1CCN(C(=S)NC(=O)c2ccc(F)cc2)CC1	-8	-0.2	18	18	1.8	-3.0	-28	i	0.68	0.5

An excerpt. The share of hits here may be higher or lower than overall.
